RE007 growth inh: less growth of the S. pombe RE007 Vpr strain. S. pombe RE007 Vpr strain, BacTiter-Glo ATP luminescence, 24 h; control for the full effect not named in the record. Potency, µM (highest dose often 92.2 µM), for inactives: top-dose activity change, negative = less growth. hit rate 0.21% among 360,000. AID 651644; active = well fitted falling curve with a large enough effect; inconclusive = small, poorly fitted or top-dose-only effect; inactive = no such curve, though single readings can be large or run the other way;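 note: % is set by controls: 0 for no effect and ±100 for the full control effect; nearly all actives have a fitted effect of over 50% in size; the assay follows cell death caused by Vpr and the record does not say whether a fall means rescue or toxicity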
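Fission yeast RE007 carrying one integrated HIV-1 vpr copy, seeded at OD 0.01 in PMG+AL medium with 23 nL pinned compound. Grown 24 h at 30 degrees; viability read by BacTiter-Glo luminescence after 5 min.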
NS1 inh: influenza NS1 inhibition; Potency, µM (titrated, usually from 46.1 µM), for inactives: at the top dose activity, positive = more growth; AID 2326; S. cerevisiae slowed by influenza A NS1, growth recovery by OD600; hit rate 0.4% among 270,000; note: actives are rising curves; nearly all actives have a fitted effect of over 50% in size
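Growth recovery, yeast-based: influenza A NS1 expressed in S. cerevisiae causes slow growth, and suppressors are detected by OD600. The parent strain without NS1 is used as positive control.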
SARS PLP yeast: inhibitors of SARS-CoV papain-like protease in yeast. S. cerevisiae expressing SARS-CoV PLpro, growth rescue; control for the full effect not named in the record. Potency, µM (titrated, usually from 32.9 µM), for inactives: top-dose activity, positive = growth rescue. hit rate 0.19% among 330,000. AID 485353; note: 0% is about no effect; nearly all actives have a fitted effect of over 55% in size; growth read by luminescence after 48 h
Marburg entry inh: Marburg virus entry inhibition. Potency, µM (top dose mostly 37.8 µM), inactives show top-dose activity change, negative = inhibition, actives largely listed as inhibitors. hit rate 1.8% among 300,000. Marburg virus pseudotyped entry inhibition, cell reporter; control for the full effect not named in the record; about a third of the inactives were read at about 46 µM; active = well fitted inhibition curve with a large enough effect; inconclusive = small, poorly fitted or top-dose-only effect, or effect the other way; inactive = flat fitted curve, though single readings scatter; tested in HEK293 cells; about a fifth of its hits are not listed in these tables; note: % is set by controls: 0 for no effect and ±100 for the full control effect; luciferase read-out
LASV entry inh: blocks Lassa virus binding to or entry into cells; hit rate 1.2% among 300,000; Potency, µM (top dose mostly 37.9 µM), for inactives: at the top dose activity change, negative = inhibition, most hits filed as inhibitors; Lassa virus pseudotype entry inhibition, cell reporter; control for the full effect not named in the record; active means well fitted inhibition curve with a large enough effect; inconclusive means small, poorly fitted or top-dose-only effect, or effect the other way; inactive means flat fitted curve, though single readings scatter; tested in HEK293 cells; note: % is set by controls: 0 for no effect and ±100 for the full control effect; nearly all actives have a fitted effect of over 50% in size; luciferase read-out
Cruzain noTriton: blocks cruzain activity in detergent-free assay; purified cruzain, Z-FR-AMC fluorescence, no detergent; Potency, µM, for the others: max response, negative = inhibition, actives largely listed as inhibitors; hit rate 2.3% among 200,000; AID 1476; active = well fitted curve in the direction sought with a large enough effect; inconclusive = small, poorly fitted or top-dose-only effect, or another doubt; inactive = no such curve, though single readings can be large; an effect the other way counts as inactive or inconclusive;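 note: plate controls were enzyme without inhibitor for no effect and buffer without enzyme for full effect; nearly all actives have a fitted effect of over 40% in size; top concentration of the series not given in the record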
Target sequence (P25779 123-467 limits assumed): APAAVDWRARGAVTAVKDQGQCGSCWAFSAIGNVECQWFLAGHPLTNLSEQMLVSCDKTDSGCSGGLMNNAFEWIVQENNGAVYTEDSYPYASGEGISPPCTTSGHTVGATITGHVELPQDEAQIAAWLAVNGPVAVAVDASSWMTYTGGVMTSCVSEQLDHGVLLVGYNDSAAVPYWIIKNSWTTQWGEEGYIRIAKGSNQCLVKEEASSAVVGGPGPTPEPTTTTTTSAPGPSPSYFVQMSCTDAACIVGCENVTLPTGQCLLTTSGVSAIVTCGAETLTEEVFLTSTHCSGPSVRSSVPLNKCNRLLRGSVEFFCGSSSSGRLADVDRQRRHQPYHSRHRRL
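Purified cruzain at 1.5 nM, pre-incubated 15 min with compound at room temperature in 100 mM sodium acetate pH 5.5, 5 mM DTT, 0.00005% Triton X-100. Reaction started with 2 uM Z-FR-AMC; AMC fluorescence increase over 60 s gives rate.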
Cruzain Triton: inhibitors of Trypanosoma cruzi cruzain with detergent | P25779 | purified cruzain, Z-FR-AMC fluorescence, 0.01% Triton | Potency, µM, inactives show max response, negative = inhibition, usual class: inhibitors | hit rate 0.43% among 200,000; active = well fitted curve in the direction sought with a large enough effect; inconclusive = small, poorly fitted or top-dose-only effect, or another doubt; inactive = no such curve, though single readings can be large; an effect the other way counts as inactive or inconclusive;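 note: plate controls were neutral wells for no effect and buffer without enzyme for full effect; nearly all actives have a fitted effect of over 40% in size; top concentration of the series not given in the record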
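Sodium acetate buffer (100 mM, pH 5.5) containing 5 mM DTT and 0.01% Triton X-100 hosted 1.5 nM cruzain and test compound for 15 min at room temperature. Cleavage of 2 uM Z-FR-AMC was then tracked by fluorescence.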
2A StopGo: lowers the luciferase signal of an FMDV 2A StopGo reporter | human cells with a luciferase reporter of 2A StopGo recoding; control for the full effect not named in the record | Potency, µM (top dose mostly 57.9 µM), for inactives: top-dose signal change, negative = less light | hit rate 1.2% among 410,000 | AID 1159524; active = well fitted falling curve with a large enough effect; inconclusive = small, poorly fitted or top-dose-only effect; inactive = no such curve, though single readings can be large or run the other way; tested in HEK293T cells; note: % is set by controls: 0 for no effect and ±100 for the full control effect; nearly all actives have a fitted effect of over 45% in size; luciferase light after 4 h
* marks the source's active call; other numbers are inactive results; u = inconclusive; x = not tested or not shown; & = joins results of further samples; [ ] = dose if it differs, or a comment. Unless noted, calls come from the whole dose curve; as a rule, active means well fitted rising curve with a large enough effect; inconclusive means small, poorly fitted or top-dose-only effect; inactive means no such curve, though single readings can be large or run the other way. Potency is the fitted concentration of half-maximal effect. No enrichment for hits; overall some 4.7% were active at least once.

Compound,RE007 growth inh,NS1 inh,SARS PLP yeast,Marburg entry inh,LASV entry inh,Cruzain noTriton,Cruzain Triton,2A StopGo
Fc1ccc(OCc2nc3ccccc3s2)cc1,-7%,x,0%,24%[46.1 µM],21%,x,x,-1%
O=C1CC(NNc2nc3ccccc3s2)C(=O)N1c1ccc(F)cc1 (stereo not given),-21%,5%,-1%,7%[46.1 µM],u,x,x,19%
COC(=O)c1ccc(Oc2nc(Nc3ccccc3)nc(N(C)C)n2)cc1,-16%,-19%,2%,-19%,-3%,-14%,-7.5%,u
CCN(CC)S(=O)(=O)c1ccc(C(=O)Nc2c3c(nn2C(C)(C)C)CS(=O)(=O)C3)cc1,12%,-24%,1%,-22%,1%,1%,7.6%,17%
N#Cc1cccc(C(=O)OCC(=O)N2CCCc3ccccc32)c1,-7%,x,-2%,u,1%,x,x,-4%
CCOC(=O)c1c(C)[nH]c(C(=O)COC(=O)c2oc3ccc(OC)cc3c2C)c1C,-9%,-1%,0%,-1%,9%,15%,1.5%,-6%
Cc1nnc2n(c1=O)C(CS(=O)(=O)c1ccccc1)CS2 (stereo not given),-7%,2%,0%,-16%,8%,-2%,2.7%,-24%
CC(=O)NCC(=O)N1CCC(n2nccc2NC(=O)CCCc2ccccc2)CC1,-5%,-5%,u,1%,12%,x,x,39%[activator]
CC(=O)Oc1ccc(-c2cccc(C(=O)Oc3ccccc3)c2)cc1,u,-20%,3%,1%,-4%,-9%,-5.1%,-6%
Cc1ccc(S(=O)(=O)NCCNC(=O)c2nonc2N)cc1,-3%,3%,4%,-21%,12%,-10%,-0.5%,33%[activator]
O=C(O)c1ccc(CN2C(=O)c3cccc4c([N+](=O)[O-])ccc(c34)C2=O)cc1,6%,1%,0%,u,-29%[46.1 µM],x,x,u
CSc1ccc(C(=O)C2CCCN(Cc3cnc(SC)nc3)C2)cc1 (stereo not given),7%,-8%,17%,u,u,x,x,-22%
O=C(COC(=O)C1CC2C=CC1C2)Nc1ccc([N+](=O)[O-])cc1 (stereo not given),-20%,x,-29%,-8%[46.1 µM],17%[46.1 µM],x,x,4%
COC(=O)/C(=N/Nc1ccc(C)cc1)N1CCCc2ccccc21,53%,-9%,-59%,u,1%,u,-1.7%,-13%
COc1cccc(CNS(=O)(=O)c2cc3c4c(c2)CCC(=O)N4CCC3)c1,0%,x,0%,-4%[46.1 µM],u,x,x,-5%
Cn1cccc1-c1cc2n(n1)CCC(=O)N2CCCC(=O)NCc1ccc(F)cc1,x,x,x,x,-1%[46.1 µM],-3%,-1.3%,-7%
CCn1nc(-c2ccccc2)nc2c(=O)n(C)c(=O)nc1-2,25µM*,-67%,-97%,0.89µM*,u,1.3µM*,2.2µM*,1.8µM*
O=C1N=C(N2CCOCC2)S/C1=C\c1ccc(OS(=O)(=O)c2ccccc2)cc1,10%,7%,-1%,-29%,u,x,x,u
O=S(=O)(c1ccccc1)c1nc(-c2ccc(Cl)cc2)oc1NCCCN1CCOCC1,11%,x,3%,u,u,x,x,-13%
CN(C)S(=O)(=O)c1ccc(C(=O)Nc2ccn(C)n2)cc1,-10%,-2%,-1%,12%[46.1 µM],u,x,x,11%
CN(CC1CCCO1)S(=O)(=O)c1ccc(C(=O)Nc2nnc(-c3ccccc3)o2)cc1 (stereo not given),-7%,-8%,-6%,x,x,x,x,-7%
N#C/C(=C(/O)COC(=O)c1ccc(O)cc1)c1nc2ccccc2[nH]1,-11%,-1%,-1%,x,x,x,x,2%
O=C(CN1CCCCCC1=O)OCc1ncc(-c2ccccc2)o1,-15%,0.45µM*,4%,3%,-20%,-1%,-5.6%,37%[activator]
CC(C)(C)c1ccc(C(=O)N2CCC(C(=O)NCc3ccco3)CC2)cc1,-5%,-2%,-11%,-12%,-12%,u,-1.7%,-20%
Cc1ccc(-n2nc3c(=O)n(CCCC(=O)NCCN4CCN(C)CC4)nc(C)c3c2C)cc1,-9%,5%,-1%,22%[46.1 µM],18%[46.1 µM],x,x,-5%
CC(Cl)c1cc(-c2ncc(C(F)(F)F)cc2Cl)no1 (stereo not given),-11%,x,3%,9%[46.1 µM],20%[46.1 µM],x,x,4%
CCOc1ccccc1NC(=O)CCNC(=O)c1ccco1,-4%,-10%,1%,3%[46.1 µM],u,x,x,16%
COc1cccc(CNC(=O)CCc2c(C)c3cc4c(C)coc4c(C)c3oc2=O)c1,x,x,x,1%[46.1 µM],2%[46.1 µM],3%,-0.5%,-6%
Cn1cc(Br)c(C(=O)NC(=S)N2CCN(c3ccccn3)CC2)n1,0%,-1%,14%,9%,2%,-14%,-8.3%,-29%
COc1cccc2c1C(CCCC(=O)O)CCC2 (stereo not given),-2%,x,x,0%[46.1 µM],u,x,x,-23%
Nc1nc(Nc2ccccc2)nc(NC2CCCCC2)c1[N+](=O)[O-],-3%,12%,-8%,u,u,x,x,-22%
Cc1ccc(C)c(NC(=O)CSC2=Nc3ccccc3N=C(c3ccc(F)cc3)C2)c1,x,x,x,x,u,2%,-0.5%,0%
c1ccc2[nH]c(CCCc3nc4ccccc4[nH]3)nc2c1,-4%,9%,-8%,5%,3%,x,x,6%
CCOc1ncccc1C(=O)Nc1ccc2c(c1)OCCCO2,-13%,x,-5%,27%,10%,x,x,19%
CCOc1cc(/C=C2\N=C3CCCCCN3C2=O)ccc1O,-3%,2%,-4%,x,x,x,x,92%[activator]
COC(=O)CSc1nnc2n(-c3ccc(OC)cc3)c(=O)c3c4c(sc3n12)CCCCC4,-2%,9%,2%,u,4%,u,-0.5%,-6%
COc1ccc(N2CCN(C(=O)CN3C(=O)NC4(CCCc5ccccc54)C3=O)CC2)cc1 (stereo not given),3%,x,0%,-19%[46.1 µM],-15%,x,x,-16%
CCOCCc1nnc(NC(=O)CCS(=O)(=O)c2ccccc2)s1,5%,1%,-2%,u,-19%[46.1 µM],x,x,38%[activator]
O=C(O)C1CC=CCC1C(=O)NCCCN1CCCC1=O (stereo not given),-4%,11%,-2%,x,x,x,x,-18%
C=CCn1c(N)cc(=O)nc1SCC(=O)NC(C)c1ccccc1 (stereo not given),-3%,14%,2%,16%,3%,-4%,3.4%,-1%
O=C(CSc1nc2c([nH]c3ccccc32)c(=O)n1-c1ccccc1)N1CCCC1,x,x,x,x,u,2%,0.1%,-11%
CCCCc1ccc(C(=O)N/C(=C\c2ccc(C)cc2)C(=O)NC2CCCCC2)cc1,x,x,x,x,16%[46.1 µM],2%,-0.1%,-1%
COc1ccc(OC)c(C2C(C(C)=O)=C(O)C(=O)N2CCc2ccc(OC)c(OC)c2)c1 (stereo not given),15%,-5%,9%,-10%,0%,-1%,-5.5%,3%
COc1cccc(CN(C)C(=O)c2cc(COc3ccc4ncccc4c3)on2)c1,1%,-8%,1%,-22%[46.1 µM],u,x,x,11µM*
COc1cccc(CC(NC(C)=O)C(=O)NC2CCN(c3nc(C)cc(C)c3C#N)CC2)c1 (stereo not given),0%,-18%,0%,24%[46.1 µM],-23%,u,-5.6%,u
Cc1cc(=O)oc(C)c1C(=O)OCC(=O)c1ccc2ccccc2c1,-28%,-17%,0%,u,u,16%,-4.9%,-19%
COc1ccc2c(c1)c(C(=O)CN1CCOCC1)c(C)n2C,12%,11%,0%,5%&5%,-2%,-8%,1.6%,4%
Cc1cccn2c(=O)c(C(=O)NC(C)c3ccccc3)cnc12 (stereo not given),x,x,x,x,u,-8%,0.4%,0%
CC(=O)N1C(=O)C2(C(C#N)=C(N)Oc3cc(C)oc(=O)c32)c2ccccc21 (stereo not given),-2%,1%,3%,3%,0%,1%,4.9%,-12%
CCN(CC)CCNc1nc2nonc2nc1NCCN(CC)CC,-8%,4%,2%,x,x,x,x,-27%

Further records
Compound,RE007 growth inh,NS1 inh,SARS PLP yeast,Marburg entry inh,LASV entry inh,Cruzain noTriton,Cruzain Triton,2A StopGo
COc1ccc(N=C2C(=Nc3ccc(OC)cc3)N(c3ccc(OC)cc3)C(=S)N2C)cc1,7%,-11%,-2%,-20%,u,u,-4.6%,x
CCCCNS(=O)(=O)c1ccc2nc(-c3cccnc3)cc(C(=O)NCCC)c2c1,x,x,x,x,-1%[46.1 µM],-8%,-2.5%,85%[activator]
CN(C(=O)CSc1ncnc2ccccc12)C1CCCCC1,26%,x,1%,u,u,x,x,38%[activator]
O=C(Nc1ccc2c(c1)OCO2)c1ccc(Br)o1,9%,-78%,-7%,20%,-15%,-22%,0.6%,x
CC(C)NC(=O)c1ccc(-c2cc(C(F)(F)F)ccc2Cl)o1,-15%,2%,5%,7%,11%,u,1.3%,-4%
Cc1ccc(Cn2nnc(C(=O)Nc3cc(C)ccc3C)c2N)cc1,2%,3%,10%,0%,0%,11%,-10%,0%
Cc1ccc(S(=O)(=O)N(OCc2ccccc2)C(C)C(=O)O)cc1 (stereo not given),15%,x,x,4%[46.1 µM],u,x,x,13%
COc1ccc(CC(=O)OCC(=O)NCc2ccc(C)cc2)cc1OC,-11%,x,4%,-5%,-19%,x,x,-11%
COC(=O)c1ccsc1NC(=O)CN1CCN(c2ccc(F)cc2)CC1,-4%,-114%,-4%,1%,u,18%,-7.2%,u
CC1(c2ccc(Cl)cc2)NC(=O)N(CC(=O)Nc2ccc(F)cc2)C1=O (stereo not given),-8%,13%,0%,-19%[46.1 µM],18%,x,x,-20%
CCCc1cc(=O)oc2cc(OCC(=O)NCc3cccs3)ccc12,8%,-11%,-6%,0%,6%,u,-2.9%,3%

Screens (PubChem BioAssay)
